Mtb hypoxia inh – Mtb hypoxia fluorescent reporter inhibition | fluorescence inhibition, % (concentration not given with the values) | 0.1% of 300,000 active | M. tuberculosis hypoxia-regulated fluorescent reporter, fluorescence | AID 1159583;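 active = 35 to 45% if threefold the growth effect, above 45% if 1.5-fold the growth effect; inactive = the rest, general growth blockers included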;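 also: wells of about 50 µL received 100 nL stock; 0% = vehicle wells and 100% = reference inhibitor wells; whole bacteria with a GFP reporter of the hypoxia response; strong numbers were not always called active; many hits fall short of the cut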
Bead autofluor – counter-screen for toxin protease inhibitors: compound fluorescence; AID 624483; compound autofluorescence counterscreen, microsphere flow cytometry; stronger effect = higher value; 3.1% of 360,000 active; fluorescence intensity (no concentration beside the values);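 active = at least 3 SD above the mean of all compounds, about 16000 in these data; inconclusive = too few beads counted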;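 also: 100 nL of 1 mM stock went into each well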
PrP 5UTR inh – suppresses PrP 5' UTR mRNA reporter expression; cell-based PrP 5' UTR mRNA reporter, plate reader; inhibition, % (concentration not given with the values); 0.35% of 340,000 active;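 active = every replicate at 50% or more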;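 also: 0 = median of the neutral control wells; tested in H4 reporter cells; numbers are from one replicate; inactives centre near -14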
Sa ugtP lethal – kills S. aureus RN4220 lacking UgtP; growth inhibition, % (no concentration beside the values); S. aureus RN4220 ugtP deletion, OD600 growth, 16 h; some inactives read as strong as hits; 0.54% of 330,000 active;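 active = z-score under -3 and OD600 up to 0.15 on both plates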;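 also: plate controls were untreated wells for no effect and antibiotic for full effect; wells of about 80 µL received 100 nL stock; the first replicate is given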
BJeLR viability – BJeLR cell viability loss | BJeLR (HRASV12) viability, CellTiter-Glo ATP luminescence, 48 h; reference of the scale not given here | inhibition, % (test concentration not listed) | 0.17% of 300,000 active | AID 1554;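 active = replicate mean above 50%; inconclusive = above 50% but judged a plate artefact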;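 also: 50 nL library stock added to about 25 µL; numbers are from one replicate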
RN4220 kill – S. aureus RN4220 growth inhibition | inhibition, % (test concentration not listed) | AID 1259311 | OD600, 16 h | 0.33% of 330,000 active;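 active = z-score of -3 or lower and OD600 up to 0.18 on both plates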;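 also: plate controls were untreated cells for no effect and reference antibiotic for full effect; stock transfer was 100 nL into about 80 µL; one replicate is shown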
Mtb hypoxia inh growth – also measured in Mtb hypoxia inh; calls as there; growth inhibition, %; measured here: M. tuberculosis growth (absorbance);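 0% = vehicle and 100% = reference antibiotic; read after six days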
Active calls of the source: *; ? = inconclusive; · = not tested or not shown.

Structure,Mtb hypoxia inh,Mtb hypoxia inh growth,Bead autofluor,PrP 5UTR inh,Sa ugtP lethal,BJeLR viability,RN4220 kill
CN1C(=O)S/C(=C/c2ccc(OCc3cccc(C(=O)O)c3)cc2)C1=O,8,4,3231,-41,12,-6,18
CCN(C[C@H]1N[C@@](Cc2ccccc2)(C(=O)OC)[C@H]2C(=O)N(Cc3ccccc3)C(=O)[C@@H]12)S(=O)(=O)c1ccc(C(C)(C)C)cc1,-10,2,4042,-10,3,·,4.3
C=CCN1CC[C@]23c4c5ccc(O)c4O[C@H]2/C(=N/NC(=O)c2ccccc2)CC[C@@]3(O)[C@H]1C5,·,·,5460,0,·,10,·
Nn1c(SCC(=O)NCCCc2ccccc2)nnc1-c1cccnc1,2,8,6430,-31,5,19,3.8
CC(C)(C)c1ccc(C(=O)/C=C2\NC(=O)CS2)cc1,·,·,3782,-83,-5,-4,-7.8
Cc1ccc(COc2ccc3c(c2)OCO3)cc1,7,10,5822,-121,26,-9,2.9
S=C(NC1CCCC1)N1CCN(c2ccccn2)CC1,11,-4,2516,-7,2,-3,3.7
CC1CCc2c(nc3nc[nH]n3c2=O)C1 (stereo unspecified),11,7,2548,-10,-1,-11,-5.3
COc1ccccc1CN1CC(C(=O)N(C)CCCn2nc(C)cc2C)CCC1=O (stereo unspecified),-4,11,?,1,2,6,0.2
COC(=O)c1cc(OC)c(OC)cc1NC(=O)c1cccc(OC)c1OC,11,3,4510,-13,-3,-12,8.5
CC(=O)C1=C(C)OC(N)=C(C#N)C1c1ccco1 (stereo unspecified),15,6,3619,-5,3,2,0.5
CC(C)CC(CSc1ccc(Br)cc1)N1CCN(CCc2ccccc2)CCC1=O (stereo unspecified),6,8,·,·,-5,·,9.0
O=C(O)COc1ccccc1C=NNc1ccc(S(=O)(=O)Nc2ccc(Cl)cc2)cc1[N+](=O)[O-],12,7,·,·,-1,·,-7.8
CCOC(=O)N1CCC(=NNc2ccc(S(N)(=O)=O)cc2[N+](=O)[O-])CC1,11,1,3187,3,2,-5,8.9
CCOC(=O)CCCCC(=O)c1[nH]c(=O)[nH]c1CSc1nnc2c3ccccc3n(C(C)C)c2n1,7,-3,2265,2,-2,13,0.8

Additional results follow:
Structure,Mtb hypoxia inh,Mtb hypoxia inh growth,Bead autofluor,PrP 5UTR inh,Sa ugtP lethal,BJeLR viability,RN4220 kill
COC(=O)C1=C(c2ccccc2)CC2CCC1N2C(=O)NCc1ccc(F)cc1 (stereo unspecified),2,6,·,·,-1,·,5.1
CC1(C)N2CC3([N+](=O)[O-])CN1CC([N+](=O)[O-])(C2)C3,-3,0,4500,-23,4,-5,3.6
CS(=O)(=O)c1ccc(-c2nnc(NC(=O)c3ccco3)o2)cc1,9,-3,5793,-30,1,14,1.3
CC(=O)Nc1ccccc1-c1nnc(SCc2ccccc2Cl)[nH]c1=O,16,8,8875,-15,4,0,2.9
O=C(CC1C(=O)NC2CCCCC2N1C(=O)c1ccc([N+](=O)[O-])cc1)Nc1ccccc1 (stereo unspecified),2,-3,5224,-9,3,9,-0.5
Cc1c(OCc2ccccc2)c(=O)ccn1Cc1ccc(F)cc1,-6,5,4304,-56,1,9,-2.7
COc1cc(CNCCCN2CCOCC2)cc(Cl)c1OCC(=O)NC(C)(C)C,17,4,4053,-6,8,7,1.0
CCc1ccc(NC2=CC(=O)C(=O)c3ccccc32)cc1,8,11,6245,-41,56,·,46
O=C(c1ccc(Br)cc1)c1cc([N+](=O)[O-])ccc1N1CCOCC1,8,7,1925,21,2,15,1.7
CN(C(=O)CN1C(=O)NC2(CCc3ccccc32)C1=O)C1CCS(=O)(=O)C1 (stereo unspecified),-10,-6,?,-13,0,-5,-2.2
CC(=O)N[C@@H]1c2c(ccc3ccccc23)OC[C@@H]1COC(C)=O,0,-5,4730,-4,-5,2,-1.8
CCc1cc(=O)n2[nH]c(-c3ccccc3)c(-c3ccccc3)c2n1,7,-3,3110,0,-5,1,-1.6
COc1ccc(C(C)NC(=S)NC2CCCC2)cc1OC (stereo unspecified),-4,-4,8878,-43,3,21,3.7
O=S(=O)(Nc1ccc(N2CCOCC2)cc1)c1cccs1,·,·,4197,7,·,10,·
COc1ccc(Oc2c(O)c3ccccc3n(C)c2=O)cc1,0,2,2614,-12,13,-3,2.5

Additional entries
Structure,Mtb hypoxia inh,Mtb hypoxia inh growth,Bead autofluor,PrP 5UTR inh,Sa ugtP lethal,BJeLR viability,RN4220 kill
CC1CCC2C(C)C(=O)OC3OC4(C)CCC1C32OO4 (stereo unspecified),81*,5.6*,3679,-25,21,-2,7.1
CCN1C(=O)NC(c2cccc(F)c2)C(C(C)=O)=C1C (stereo unspecified),0,11,·,·,-3,·,0.4
CC1(C)OC(=CC=Nc2ccc(Cl)cc2)OC1(C)C,-3,3,·,-2,-4,-2,3.6
CCN(CC(=O)Nc1c(F)cccc1F)C(=O)c1ccc(N2CCOCC2)c([N+](=O)[O-])c1,·,·,?,-25,·,1,·
O=C(Nc1cc(Cl)ccc1Cl)C1CC(=O)N(c2ccc(Br)cc2)C1 (stereo unspecified),7,9,4240,-4,3,-4,6.4
CCN1N=C(c2ccccc2)Cn2c1nc1ccccc12,·,·,4354,-33,-7,-17,9.2
O=C(NCCC1=CCCCC1)c1ccc(Cl)cc1,·,·,·,·,6,-4,-5.4
O=C(COc1ccc(Cl)cc1Br)NC(=O)NCc1ccccc1,3,8,2298,-10,-3,-16,0.9
N#CC(c1ccc(Cl)cc1)c1ncc(C(F)(F)F)cc1Cl (stereo unspecified),8,-2,?,-12,-7,1,1.5
CCO[C@H]1OC(C(=O)O)=C[C@@H](c2csc3ccccc23)[C@@H]1CCCO,·,·,3568,-6,·,6,·
C=CCC1(/C=N/O)CCOC(C)(C)C1 (stereo unspecified),·,·,4378,-5,·,3,·
COc1ccc(-c2csc(NC(=O)CN3C(=O)CCC3=O)n2)cc1,6,2,4175,8,0,-3,4.6
COc1cc(C(C(=O)NC2CCCC2)N(C(=O)c2snc(C(N)=O)c2N)c2ccccc2)cc(OC)c1OC (stereo unspecified),-6,0,3595,-5,15,-5,-0.2
O=C(COc1ccc(/C=C2/NC(=O)NC2=O)cc1)Nc1ccc(F)cc1,2,18,5344,0,-5,-2,1.4
Cn1cc(CNC(=O)CC2C(=O)NCCN2CC(C)(C)C)cn1 (stereo unspecified),-3,-1,2132,5,1,3,-2.1

The list continues.
Structure,Mtb hypoxia inh,Mtb hypoxia inh growth,Bead autofluor,PrP 5UTR inh,Sa ugtP lethal,BJeLR viability,RN4220 kill
C=CCc1c(C)nc(SCc2ccccc2)[nH]c1=O,14,2,3427,-23,14,2,6.6
NC(=O)c1ccsc1NC(=O)COC(=O)c1ccc(Cl)cc1,6,-4,4970,·,-6,·,2.9
CS(=O)(=O)N(CC(=O)Nc1ccc2c(c1)OCCO2)c1ccc2c(c1)OCO2,·,·,4226,-17,-4,9,-1.5
O=C(CCCCCCCCC(=O)N1CCCCC1)N1CCCCC1,8,4,3423,-5,3,·,1.7
CCCCOc1ncnc2c1[nH]c1ccc(OC)cc12,5,8,·,·,-3,13,2.3
COc1cc(C(C(=O)NC2CCCC2)N(C(=O)Cc2cccs2)C2CC2)cc(OC)c1OC (stereo unspecified),2,-9,4674,-19,10,-8,5.3
CCn1nc(C)cc1C(=O)N1CCCC(C(=O)c2cccc(OC)c2)C1 (stereo unspecified),16,2,4405,-15,3,0,7.7
CC(C)c1ccc(S(=O)(=O)N2CCN(C(C)C(=O)Nc3ccccc3-c3ccccc3)CC2)cc1 (stereo unspecified),5,-6,2446,-33,3,-2,2.0
Cc1c(C(=O)N2CCCCC2)oc2ccccc12,·,·,3468,-34,3,·,0.1
COc1ccc(N/N=C/c2c(O)n(-c3cccc(C)c3)c(=O)[nH]c2=O)cc1,7,0,4215,-7,13,-5,5.7
CCCCN(C(=O)c1cc2ccccc2o1)c1c(N)n(CC(C)C)c(=O)[nH]c1=O,4,4,10779,-14,-2,2,4.7
CCOC(=O)CSc1nc2c(c(=O)[nH]c(=O)n2C)n1Cc1ccccc1,-5,-10,3123,-13,1,-2,0.0
O=C(NN=C1CCCC1)c1ccccc1[N+](=O)[O-],10,5,3608,-5,6,4,2.4
Cc1ccc(S(=O)(=O)N2CCCCC2)cc1NC(=O)CNc1ccccc1N1CCCC1=O,11,8,8371,36,7,·,-0.2
CN(C)C(=O)CCc1ccc2c3c([nH]c2c1)[C@]1(CCc2ccccc2)[C@@H](C(=O)N2CCCCC2)C[C@H](CC(=O)NCc2cccc(C(F)(F)F)c2)C(=O)N1CC3,0,2,3560,-12,2,·,-4.2

(list continues)
Structure,Mtb hypoxia inh,Mtb hypoxia inh growth,Bead autofluor,PrP 5UTR inh,Sa ugtP lethal,BJeLR viability,RN4220 kill
O=C(Cn1c(=O)sc2ccccc21)Nc1nc2c(s1)CCCC2,10,12,2017,-12,4,3,-1.4
O=C(NC(=O)N1CCN(c2ccc([N+](=O)[O-])cn2)CC1)c1ccccc1F,2,12,5632,-10,-3,-3,2.4
CCN(CC)S(=O)(=O)c1ccc(N2CCOCC2)c(NS(=O)(=O)c2ccc(C)c(C)c2)c1,11,1,2139,-24,-1,1,13
O=C(NCCCN1CCCC1=O)c1ccc([N+](=O)[O-])s1,10,2,6786,-29,0,0,4.5
COc1ccc2oc(=Nc3ccc(C(=O)O)cc3)c(C(=O)NCc3ccco3)cc2c1,·,·,8796,-25,·,-1,·
CCC(CC)NC(=O)Nc1cccc(C)c1C,9,6,2566,-11,7,-2,6.4
COc1ccccc1N1CCN(C2CCCN(C(=O)CCc3cnn(C)c3)C2)CC1 (stereo unspecified),-5,-5,4558,-13,0,-3,-4.4
CC(O)CNCCOc1ccccc1-c1ccccc1 (stereo unspecified),9,2,4514,-32,2,-6,4.2
O=C1c2ccccc2C(=O)N1CCCCN(C(=O)c1ccc(Cl)s1)c1ccc(Cl)cc1,13,-1,9691,-10,-5,-8,-6.5
O=C(NCCc1ccccc1F)C1CC(O)CN1C(=O)Nc1ccccc1 (stereo unspecified),-6,0,3817,-10,0,-8,3.2
COc1ccccc1N1CCN(CC(=O)N2CCCC2)CC1,5,1,3179,-11,19,-2,7.3
COc1ccc(Nc2nc(NCc3ccco3)nc(N3CCOCC3)n2)cc1,8,7,3843,-8,2,2,0.6
NS(=O)(=O)c1ccc(NNC(=O)c2ccccc2)cc1,-5,0,3893,-25,6,4,3.5
CCCn1c(N)c(N(CCOC)C(=O)COC(=O)CSc2cc(C)c3ccccc3n2)c(=O)[nH]c1=O,14,2,?,-1,-2,1,1.0
Cc1ccc(C2=NN(CCC#N)C(=O)CO2)cc1,4,7,3108,-6,-1,3,1.9

Compound profiles, from the list above. Order of screens: Mtb hypoxia inh, Mtb hypoxia inh growth, Bead autofluor, PrP 5UTR inh, Sa ugtP lethal, BJeLR viability, RN4220 kill
COc1ccccc1N1CCN(CC(=O)N2CCCC2)CC1 in the list: 5, 1, 3179, -11, 19, -2, 7.3
CC(O)CNCCOc1ccccc1-c1ccccc1 (stereo unspecified) in the list: 9, 2, 4514, -32, 2, -6, 4.2
COc1ccc(Nc2nc(NCc3ccco3)nc(N3CCOCC3)n2)cc1 in the list: 8, 7, 3843, -8, 2, 2, 0.6
COc1ccccc1N1CCN(C2CCCN(C(=O)CCc3cnn(C)c3)C2)CC1 (stereo unspecified) in the list: -5, -5, 4558, -13, 0, -3, -4.4

(list continues)
Structure,Mtb hypoxia inh,Mtb hypoxia inh growth,Bead autofluor,PrP 5UTR inh,Sa ugtP lethal,BJeLR viability,RN4220 kill
S=c1[nH]nc(-c2ccco2)n1/N=C/c1ccccc1Cl,·,·,2192,-18,·,-8,·
COc1cccc(C(=O)Nc2cc(C)on2)c1OC,-1,3,3436,-42,-1,-1,4.5
COc1ccc(C=NNC(=O)CN(C)S(=O)(=O)c2ccc(NC(C)=O)cc2)cc1,-12,-3,·,·,6,·,4.5
CC(C)OCCCNc1nc2c(c(=O)n(Cc3ccccc3F)c(=O)n2C)n1C,2,7,23412*,-17,-7,1,3.8
Cc1ccc2cccc(NC3OC(=O)c4ccccc43)c2n1 (stereo unspecified),0,3,2552,-30,-10,-12,22
Cc1ccc(NC(=O)CC(C)N2CCCC2)cc1 (stereo unspecified),·,·,4825,-6,1,4,0.9
